From PubChem
TRPML1 blocker: blocks the human TRPML1 channel; Q9GZU1; TRPML1-inducible cells, Ca2+ dye fluorescence, FDSS; active compounds read low; inhibition of EC80 agonist-evoked calcium signal; activity change, negative = inhibition, % (concentration not given with the values); actives 0.02% (n = 390,000); AID 624415; in the data active means activity change below about -50%; inconclusive means about -30% to -50%; inactive means above about -30%;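 further: stimulus is agonist 54-4 at its EC80 concentration; on the % scale 0 is the no-effect control and ±100 the full control effect; the text of the record puts the active cut at -80%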
Target sequence (Q9GZU1 whole entry, looked up): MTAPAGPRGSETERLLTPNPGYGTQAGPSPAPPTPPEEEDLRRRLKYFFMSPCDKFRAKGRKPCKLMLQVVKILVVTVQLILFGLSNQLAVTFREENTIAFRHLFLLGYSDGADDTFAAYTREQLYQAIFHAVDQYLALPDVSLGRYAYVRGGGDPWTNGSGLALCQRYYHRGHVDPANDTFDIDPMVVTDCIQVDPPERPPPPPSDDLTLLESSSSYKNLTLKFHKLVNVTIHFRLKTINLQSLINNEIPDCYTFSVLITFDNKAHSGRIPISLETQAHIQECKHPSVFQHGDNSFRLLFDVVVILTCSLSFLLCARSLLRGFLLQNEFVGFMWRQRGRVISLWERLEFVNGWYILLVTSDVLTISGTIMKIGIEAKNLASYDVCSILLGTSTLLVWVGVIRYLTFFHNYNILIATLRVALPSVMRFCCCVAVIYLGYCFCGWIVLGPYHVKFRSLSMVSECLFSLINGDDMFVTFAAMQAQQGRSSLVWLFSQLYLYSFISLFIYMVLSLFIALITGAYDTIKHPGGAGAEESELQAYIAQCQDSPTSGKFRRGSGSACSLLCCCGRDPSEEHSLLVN
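Tet-induced TRPML1-DL cells loaded with Ca8 no-wash calcium dye were read kinetically on FDSS. Compound addition was followed by EC80 agonist 54-4 (4 uM final); inhibition was read over 110 s.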
D2 ag: agonists of human D2 dopamine receptor (beta-arrestin) | activation, % (no concentration beside the values) | actives 0.084% (n = 360,000) | P14416 | DiscoveRx PathHunter D2 beta-arrestin, luminescence, 90 min; 100% = 57 uM dopamine signal; in the data active = activation above about 40%; inconclusive = about 15% to 40%; inactive = below about 15%; further: compound concentration not given in the record; the text of the record calls up to 30% inactive
Target sequence (P14416 whole entry, looked up): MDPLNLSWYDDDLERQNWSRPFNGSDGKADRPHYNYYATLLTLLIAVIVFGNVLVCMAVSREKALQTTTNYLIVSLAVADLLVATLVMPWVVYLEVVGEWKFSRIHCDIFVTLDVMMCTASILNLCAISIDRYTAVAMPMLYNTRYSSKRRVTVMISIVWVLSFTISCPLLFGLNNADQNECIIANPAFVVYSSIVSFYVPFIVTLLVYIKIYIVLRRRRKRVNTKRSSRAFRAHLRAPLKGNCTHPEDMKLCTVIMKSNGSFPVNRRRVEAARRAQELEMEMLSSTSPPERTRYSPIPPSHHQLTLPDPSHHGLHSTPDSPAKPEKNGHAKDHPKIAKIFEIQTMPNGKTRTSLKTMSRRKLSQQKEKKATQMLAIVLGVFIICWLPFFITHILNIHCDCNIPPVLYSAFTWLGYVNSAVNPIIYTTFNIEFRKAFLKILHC
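DiscoveRx PathHunter D2 beta-arrestin cells (2,100/well) attached overnight, then compound-stimulated 90 min at 37 C in HBSS/10 mM HEPES/0.1% Tween-20 buffer; beta-galactosidase complementation read by luminescence after 1 h at ambient temperature. Dopamine 57 uM final (EC100) as control.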
CtBP-E1A blk: blocks the CtBP interaction with E1A; AlphaScreen GST-E1A/His-CtBP binding, 1536-well; active compounds read low; control for the full effect not named in the record; activity change, % (concentration not given with the values); actives 0.49% (n = 340,000); AID 651724; in the data active means activity change below about -65%; inconclusive means about -30% to -65%; inactive means above about -30%; further: on the % scale 0 is the no-effect control and ±100 the full control effect
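Homogeneous bead-based format: GST-tagged E1A captured on glutathione donor beads, His-tagged CtBP on nickel acceptor beads; compounds precede bead addition by 2 h at 37 °C.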
PINK1 expr mod: changes PINK1 expression; PINK1 immunofluorescence, high-content cytometry, 24 h; AID 624263; Potency, µM (titrated, usually from 76.6 µM), for the others: top-dose activation (PINK1 increase), actives largely listed as activators; actives 0.2% (n = 410,000); active = well fitted activation curve with a large enough effect; inconclusive = small, poorly fitted or top-dose-only effect; inactive = flat fitted curve, though single readings scatter; cell line not stated here;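 further: potency means the concentration at half of the fitted maximal effect; % of control where 0% means no effect; nearly all actives have a fitted effect of over 65% in size; a mitochondrial uncoupler was the plate control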
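PINK1 protein level read as immunofluorescence by microplate cytometer in a fixed, stained stable cell line after 24 h exposure to five compound concentrations, with CCCP as control.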
TRPML1 ag: activates the human TRPML1 channel. AID 624414. TRPML1-expressing cells, Ca2+ dye fluorescence, FDSS; host cell line not named in the record; reference of the full effect not given here. Q9GZU1. actives 0.12% (n = 410,000). activation, % (no concentration beside the values); in the data active = activation above about 50%; inconclusive = about 30% to 50%; inactive = below about 30%; further: 0% is about no effect; the text of the record puts the active cut at 80%
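Tet-induced TRPML1-DL cells, 1,500 per well, cultured overnight, were loaded with a no-wash Ca2+ dye for 45–90 min. Calcium fluorescence was recorded on the FDSS for 110 s after compound addition, before the EC80 agonist (4 uM 54-4) was added.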
Six1-Eya2 inh: blocks human Six1 binding to Eya2; Q15475+O00167; AlphaScreen GST-Six1/His-Eya2 binding, biochemical; active compounds read low; control for the full effect not named in the record; activity change, % (test concentration not listed); actives 0.56% (n = 360,000); AID 651725; in the data active = activity change below about -65%; inconclusive = about -30% to -65%; inactive = above about -30%; further: on the % scale 0 is the no-effect control and ±100 the full control effect
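AlphaScreen with GST-Six1 and His-Eya2 (5X mix: 250 nM and 500 nM), glutathione donor and nickel acceptor beads; buffer 50 mM Tris pH 8.0, 300 mM NaCl, 1 mM TCEP; 1 h at 37 C in the dark.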
* marks the source's active call; other numbers are inactive results; ? = inconclusive; · = not tested or not shown; [ ] = another dose, or the depositor's remark.

Codes: A = TRPML1 blocker; B = D2 ag; C = CtBP-E1A blk; D = PINK1 expr mod; E = TRPML1 ag; F = Six1-Eya2 inh
#1 S=C(c1ccc2c(c1)OCO2)N1CCN(c2cccc(Cl)c2)CC1
  A = 4; B = -4.7; C = -21; D = 3.9%; E = 3.4; F = -25
#2 COc1ccccc1NC(=O)C(=O)NCc1ccccc1Cl
  A = 4; B = -0.9; C = 14; D = 3.7%; E = 3.9; F = 4
#3 O=C(NCCO)c1cc2c([nH]c3ccccc32)c(-c2ccccc2)n1
  A = 9; B = 1.7; C = -3; D = 0.0%; E = -0.7; F = 1
#4 O=C(CCl)N(c1ccccc1)c1c[nH]c2ccccc12
  A = 32; B = -7.4; C = -1; D = -6.6%; E = 0.2; F = -4
#5 Cc1cc(Cl)c(C(=O)Nc2cccc(C(F)(F)F)c2)c(C)n1
  A = 14; B = -5.9; C = 0; D = 3.2%; E = 0.0; F = 9
#6 CSC1=C(C#N)C(c2ccccc2Cl)C(C(=O)c2cccs2)C(O)(C(F)(F)F)N1 (stereo unspecified)
  A = 7; B = 2.2; C = -4; D = ?; E = 0.2; F = 5
#7 COC(=O)c1ccc(N2CCOCC2)c(NC(=O)Nc2cccc(OC)c2)c1
  A = 0; B = -7.3; C = 1; D = 0.0%; E = -0.6; F = -4
#8 Cc1ccc(S(=O)(=O)N(CC(O)Cn2c3ccccc3c3ccccc32)c2cccc(C(N)=O)c2)cc1 (stereo unspecified)
  A = 42; B = ·; C = ·; D = 4.9%; E = 3.0; F = ·
#9 CC(O)CNc1nc2c(c(=O)n(C)c(=O)n2C)n1CCc1ccccc1 (stereo unspecified)
  A = -4; B = 1.3; C = 2; D = 0.4%; E = -0.6; F = 0
#10 Brc1ccc(-c2cn3cc(Cc4ccccc4)sc3n2)cc1
  A = -7; B = ·; C = ·; D = 1.4%; E = -0.1; F = ·

Single values from the list.
Value of Cc1ccc(S(=O)(=O)N(CC(O)Cn2c3ccccc3c3ccccc32)c2cccc(C(N)=O)c2)cc1 (stereo unspecified) in TRPML1 blocker: 42
Value of CSC1=C(C#N)C(c2ccccc2Cl)C(C(=O)c2cccs2)C(O)(C(F)(F)F)N1 (stereo unspecified) in Six1-Eya2 inh: 5
Value of O=C(NCCO)c1cc2c([nH]c3ccccc32)c(-c2ccccc2)n1 in Six1-Eya2 inh: 1
Value of Brc1ccc(-c2cn3cc(Cc4ccccc4)sc3n2)cc1 in TRPML1 ag: -0.1
Value of Cc1cc(Cl)c(C(=O)Nc2cccc(C(F)(F)F)c2)c(C)n1 in PINK1 expr mod: 3.2%

Further entries follow.
Codes: A = TRPML1 blocker; B = D2 ag; C = CtBP-E1A blk; D = PINK1 expr mod; E = TRPML1 ag; F = Six1-Eya2 inh
#11 Cc1cc2c(OCC(O)CNC(C)(C)C)cccc2[nH]1 (stereo unspecified)
  A = 7; B = -1.8; C = 4; D = 2.0%; E = -0.4; F = -13
#12 COc1ccccc1CN1CC(C(=O)NC2CCCCC2)CC1=O (stereo unspecified)
  A = -6; B = -4.7; C = 10; D = ·; E = -0.4; F = -2
#13 CCC(C(=O)Nc1cc(C(=O)O)ccc1C)c1ccccc1 (stereo unspecified)
  A = 2; B = 8.0; C = 2; D = 4.5%; E = 1.5; F = -4
#14 COc1ccc(CCn2c(=N)c(C(=O)N3CCN(C)CC3)cc3c(=O)n4ccccc4nc32)cc1
  A = -7; B = -2.8; C = -12; D = -0.7%; E = 1.1; F = -9
#15 CCC(=O)c1ccc(N2CCCCC2)c(F)c1
  A = -24; B = -1.8; C = 8; D = 1.8%; E = 1.6; F = 30
#16 O=C(Cn1cnnn1)Nc1ccccc1Cc1ccccc1
  A = 25; B = -1.0; C = -2; D = -0.6%; E = 0.5; F = 10
#17 CCCn1c(SCC(=O)N2CC(=O)Nc3ccccc32)n[nH]c1=O
  A = 20; B = 0.6; C = 7; D = -0.4%; E = 1.1; F = -1
#18 COc1cc(CC(=O)OCC(=O)N2CCN(C(=O)c3ccco3)CC2)cc(OC)c1OC
  A = -1; B = -2.1; C = 8; D = 1.1%; E = -0.2; F = 0
#19 COc1ccc(NC(=O)c2c(C)oc3ccc(O)c(CN4CCCC(C)C4)c23)cc1 (stereo unspecified)
  A = 5; B = ·; C = ·; D = 0.7%; E = -1.3; F = ·
#20 CCN(CC)CC(=O)Nc1ccc2c(c1)Nc1ccccc1CC2
  A = 11; B = -0.1; C = -16; D = 6.9%; E = 0.7; F = -29
#21 CCCn1nnnc1SCC(=O)NCc1ccc(OC)cc1
  A = -3; B = -2.0; C = 4; D = -1.0%; E = 0.3; F = 4
#22 CCCC(=O)Oc1ccc(C2NC(=O)c3ccccc3O2)cc1 (stereo unspecified)
  A = 7; B = 0.1; C = -4; D = -0.9%; E = 0.2; F = ?
#23 CN(CC(=O)Nc1cccc(F)c1)C(=O)Cn1cnc2c1c(=O)n(C)c(=O)n2C
  A = 2; B = -0.4; C = 5; D = 2.9%; E = 1.2; F = 0
#24 Cc1ccc2c(c1)N(CC(=O)NCc1cccs1)C(=O)C(C)O2 (stereo unspecified)
  A = 5; B = -0.6; C = -3; D = -0.5%; E = -0.2; F = 5
#25 COCCSc1nc(N)c2c3c(sc2n1)CN(C)CC3
  A = 1; B = -3.1; C = -28; D = 0.4%; E = 0.0; F = -16
#26 COc1ccc(NC(=O)[C@H](C)NC(N)=O)cc1S(=O)(=O)Nc1cc(C)ccc1Br
  A = -4; B = -5.9; C = -1; D = 0.6%; E = 0.5; F = 7
#27 O=C(NC(=S)Nc1ccc(NC(=O)c2cccs2)cc1)c1ccc([N+](=O)[O-])cc1
  A = 20; B = -2.9; C = -2; D = 2.7%; E = 0.9; F = -1
#28 O=C(COC(=O)c1ccc(-n2cnnn2)cc1)c1ccc(Br)cc1
  A = -5; B = 6.9; C = 7; D = -0.8%; E = 0.7; F = 3
#29 COc1ccc(NC(=O)c2c(NCc3cccc(OC)c3)sc3c2CCC3)cc1
  A = 15; B = ·; C = ·; D = 0.0%; E = 0.3; F = ·
#30 O=C(CCSc1ccccc1)Nc1nc2c(s1)COc1ccccc1-2
  A = 5; B = -0.3; C = -12; D = 7.2%; E = 0.9; F = 3
#31 Cc1c(C(=O)NCCCN2CCCC2=O)oc2c(Cl)cccc12
  A = 11; B = 3.0; C = 3; D = 1.2%; E = 0.6; F = -2
#32 CCN(CC)C(=S)SCC(=O)Nc1ccc(F)cc1
  A = 5; B = -2.7; C = 8; D = -0.2%; E = 1.0; F = 31
#33 CCOC(=O)CNC(=O)C(Cc1ccccc1)NC(=O)OCc1ccccc1 (stereo unspecified)
  A = -12; B = -4.2; C = -17; D = 4.6%; E = 0.7; F = 4
#34 O=[N+]([O-])c1ccc(C=NN2CCNC2=S)o1
  A = -9; B = -1.2; C = -1; D = 0.6%; E = -0.1; F = ?
#35 COc1ccc(OCC(=O)N2CCC(n3nccc3NC(=O)C3CC3)CC2)cc1
  A = -12; B = 0.3; C = -4; D = 0.2%; E = 0.1; F = 3
#36 O=C(OCc1cccc(C(F)(F)F)c1)c1cc(S(=O)(=O)N2CCOCC2)ccc1F
  A = -11; B = 7.8; C = 0; D = -4.6%; E = 5.0; F = 5
#37 COc1ccc(C(c2c(O)cc(C)oc2=O)c2c(O)cc(C)oc2=O)cc1
  A = 9; B = -5.6; C = 17; D = -0.5%[38.3 µM]; E = 1.1; F = 4
#38 CC(CNC(=O)c1ccc2c(c1)nc1n2CCCCC1)c1ccccc1 (stereo unspecified)
  A = -6; B = ·; C = ·; D = 6.2%; E = -0.3; F = ·
#39 O=C(Nc1cccc2c1C(=O)NC2=O)c1cccc(N2C(=O)CCC2=O)c1
  A = 34; B = -5.4; C = ·; D = 2.6%; E = -0.1; F = -1
#40 CCN(Cc1ccccc1)C(=O)c1cccc(S(=O)(=O)N2CCN(Cc3ccccc3)CC2)c1
  A = 13; B = 0.0; C = 9; D = 8.5%; E = 0.9; F = -12
#41 CCN(CC)S(=O)(=O)c1ccc(N2CCOCC2)c(NC(=O)c2cccc3c(=O)c(C)c(-c4ccccc4)oc23)c1
  A = -8; B = 14; C = ·; D = 0.7%; E = -0.2; F = -9
#42 Cc1c(NC(=O)CSc2nc3ccc(Cl)cc3[nH]2)c(=O)n(-c2ccccc2)n1C
  A = 8; B = -1.8; C = -3; D = -0.9%; E = 1.6; F = 4
#43 C=CC[n+]1ccn(-c2nc3ccccc3nc2[N-]S(=O)(=O)c2cccs2)c1
  A = -21; B = -5.7; C = -1; D = 0.0%; E = 0.5; F = 4
#44 Cc1ccc(NC(=O)c2c(C)oc3ccc(O)c(CN(C)Cc4ccccc4)c23)c(C)c1
  A = -12; B = ·; C = ·; D = 2.0%; E = 1.1; F = ·
#45 CCc1cc(C(=O)Nc2c(C)nn(Cc3ccc(C)cc3)c2C)no1
  A = -23; B = ·; C = ·; D = 1.1%; E = -1.4; F = ·
#46 COC(=O)c1cccc(C(=O)Nc2ccc(F)cc2)n1
  A = 13; B = 0.6; C = -1; D = -0.4%[38.3 µM]; E = -0.3; F = -2
#47 O=C1CC(c2cccc(Cl)c2)Cc2nc(N3CCN(c4ccccc4)CC3)ncc21 (stereo unspecified)
  A = -2; B = -2.1; C = 9; D = ?; E = 1.1; F = 5
#48 COc1cccc(CNc2ccc(C)c(Cl)c2)c1
  A = -14; B = -7.2; C = ·; D = 8.1%; E = 2.3; F = -3
#49 O=c1[nH]nc(N/N=C/c2ccccc2OC(F)F)c(=O)[nH]1
  A = 19; B = 2.9; C = -15; D = 0.4%; E = 1.0; F = -11
#50 Cc1ccc(S(=O)(=O)Nc2cccc(-n3cnnn3)c2)cc1
  A = -20; B = 6.0; C = ·; D = 0.9%; E = 0.4; F = -4

An excerpt from above, showing only TRPML1 blocker:
entry | compound | TRPML1 blocker
46 | COC(=O)c1cccc(C(=O)Nc2ccc(F)cc2)n1 | 13
47 | O=C1CC(c2cccc(Cl)c2)Cc2nc(N3CCN(c4ccccc4)CC3)ncc21 (stereo unspecified) | -2

Following part:
Codes: A = TRPML1 blocker; B = D2 ag; C = CtBP-E1A blk; D = PINK1 expr mod; E = TRPML1 ag; F = Six1-Eya2 inh
#51 Cc1ccc(-n2c(-c3ccncc3)nnc2-c2ccco2)cc1
  A = -11; B = -3.4; C = 14; D = -3.0%; E = 2.2; F = -2
#52 COc1ccc(CCNC(=O)c2cc3ccc(Cl)cc3nc2N)cc1
  A = ·; B = ·; C = 11; D = 2.9%; E = -0.7; F = 1
#53 CC(C)c1cc(C(=O)O)on1
  A = 7; B = -0.4; C = -2; D = -0.7%; E = 0.0; F = 11
#54 Cc1ccc(Nc2nnc(-c3ccc(C)c(S(=O)(=O)N4CCN(C)CC4)c3)c3ccccc23)cc1
  A = 29; B = ·; C = ·; D = 0.4%; E = -0.5; F = ·

Four entries out of the list above, arranged by the value under PINK1 expr mod, low to high.
nr	mol	PINK1 expr mod
7	COC(=O)c1ccc(N2CCOCC2)c(NC(=O)Nc2cccc(OC)c2)c1	0.0%
54	Cc1ccc(Nc2nnc(-c3ccc(C)c(S(=O)(=O)N4CCN(C)CC4)c3)c3ccccc23)cc1	0.4%
20	CCN(CC)CC(=O)Nc1ccc2c(c1)Nc1ccccc1CC2	6.9%
40	CCN(Cc1ccccc1)C(=O)c1cccc(S(=O)(=O)N2CCN(Cc3ccccc3)CC2)c1	8.5%
